# Source: PubChem
# KCNQ2 enhance = enhances the rat KCNQ2 potassium channel | O88943 | CHO-K1 KCNQ2, FluxOR thallium flux fluorescence; stronger effect = higher value | B-score at 10 µM | 0.54% of 310,000 active | AID 2239;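 active = fluorescence ratio B-score at least 3 SD of library B-scores, with initial fluorescence B-score within 3 SD, cut at about 5.3 in these data; same plate scores as AID 2156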;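 note: B-score of peak minus minimum over baseline fluorescence ratio after K+ and Tl+ stimulus; positive B-score means potentiation of KCNQ2 with more thallium influx and brighter signal; only the inactives scoring about 0 or higher are listed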
# Target sequence (O88943 whole entry, looked up): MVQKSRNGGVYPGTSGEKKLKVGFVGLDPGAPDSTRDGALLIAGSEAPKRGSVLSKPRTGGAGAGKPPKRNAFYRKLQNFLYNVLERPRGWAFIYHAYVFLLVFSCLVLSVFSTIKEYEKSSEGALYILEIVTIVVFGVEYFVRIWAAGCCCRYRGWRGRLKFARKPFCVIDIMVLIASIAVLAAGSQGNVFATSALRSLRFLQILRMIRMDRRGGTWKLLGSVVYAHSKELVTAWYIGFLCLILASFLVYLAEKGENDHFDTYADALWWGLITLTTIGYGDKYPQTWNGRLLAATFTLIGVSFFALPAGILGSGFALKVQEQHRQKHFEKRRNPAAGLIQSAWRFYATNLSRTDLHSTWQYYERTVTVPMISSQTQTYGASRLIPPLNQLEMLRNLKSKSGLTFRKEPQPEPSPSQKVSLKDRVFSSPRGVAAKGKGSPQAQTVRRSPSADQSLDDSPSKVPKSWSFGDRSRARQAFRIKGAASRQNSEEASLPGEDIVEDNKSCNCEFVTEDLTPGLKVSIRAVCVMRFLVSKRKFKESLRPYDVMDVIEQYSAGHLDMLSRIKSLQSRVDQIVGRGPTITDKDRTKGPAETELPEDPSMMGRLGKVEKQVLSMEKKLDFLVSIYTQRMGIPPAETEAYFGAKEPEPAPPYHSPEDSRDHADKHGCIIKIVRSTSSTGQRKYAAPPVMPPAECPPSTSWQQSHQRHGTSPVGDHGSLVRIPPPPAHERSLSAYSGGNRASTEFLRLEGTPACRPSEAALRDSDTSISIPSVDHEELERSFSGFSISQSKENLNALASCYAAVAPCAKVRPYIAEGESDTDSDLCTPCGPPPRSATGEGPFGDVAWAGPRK
# KCNQ2 enhance baseline = further read-out of KCNQ2 enhance, marked with its call; B-score; compound at 10 µM; measured here: initial fluorescence intensity artifact check;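 brightness before thallium and not channel activity; 0 = typical well and far values either way flag optical interference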
# * hit, by the source's call; x = not tested or not shown. Not all compounds are listed; rates above refer to the full screens.
KCNQ2 enhance baseline,KCNQ2 enhance,SMILES
-1.3,1.2,CSCCC1C(=O)OC2(C)CC(C)(C)NC(=S)N12 (stereo not given)
-0.17,2.2,CC1CCCCC1NC(=O)COC(=O)CNC(=O)c1cccc(F)c1 (stereo not given)
0.74,0.1,O=C(O)CCCn1cc(NC(=O)c2cc(F)c(F)cc2Cl)cn1
-0.74,1.4,CCOC(=O)C1(CC)NC(c2ccco2)C2C(=O)N(c3ccc(C)cc3)C(=O)C21 (stereo not given)
-1,3.7,CCc1c(C)[nH]c(C(=O)OCc2ccccc2)c1C
1.8,1.4,COc1ccc(NS(=O)(=O)c2cc(C(=O)N3CCN(C(C)=O)CC3)ccc2Cl)cc1
-0.15,2.6,CC1(C)Cc2c(sc3nnn(CC(=O)Nc4ccccc4)c(=O)c23)CO1
0.48,0.02,COc1ccccc1NC(C)C(=O)Nc1ccc(C(C)=O)cc1 (stereo not given)
0.93,1.3,CCN(CC)S(=O)(=O)c1cccc(NC(=O)COC(=O)c2n[nH]c(=O)c3ccccc23)c1
-2,1.1,COc1cc(OC)c2cc(C(=O)N/N=C/c3ccccc3O)[nH]c2c1
0.67,0.91,Cc1ccccc1CN1C(=O)c2ccccc2S1(=O)=O
1.9,0.18,CC1CCCCN1C(=O)C1CCCN(S(=O)(=O)c2cccc3nsnc23)C1 (stereo not given)
-1.3,0.13,CC(NC1CCCCC1)C(=O)NN=C(c1ccccc1)c1ccccc1 (stereo not given)
0.51,1.5,Cc1ccc(C(=O)NCC(=O)OCC(=O)c2ccc3c(c2)NC(=O)CO3)cc1
-2.7,0.92,O=C1NC2(CCCCCC2)C(=O)N1Cc1ccc(F)cc1Cl
2.9,0.06,O=C(O)/C=C/C(=O)N(Cc1ccccc1)Cc1ccco1
0.31,1.6,CCN(CC)C(=O)Cn1cc(S(=O)(=O)CC(=O)Nc2ccc(F)cc2)c2ccccc21
-0.06,0.04,CSc1ccc(/C=N/NC(=O)COc2ccc(Br)cc2Cl)cc1
1.8,0.33,O=c1[nH]c2ccccc2n1CCC1CCCCC1
0,0.52,CC1CC1C(=O)N(C)CC(=O)Nc1ccc(Cl)c(C(F)(F)F)c1 (stereo not given)

# Further results follow:
KCNQ2 enhance baseline,KCNQ2 enhance,SMILES
0.7,0.05,Cc1ccc(OCC(=O)Nc2nnc(S(=O)(=O)N3CCCCC3)s2)cc1
0.92,0.62,C=CCc1ccc(OCCCN2CCCC(C)C2)c(OC)c1 (stereo not given)
-2.9,2.6,O=C(O)CN1C(=O)/C(=C\c2ccccc2OCc2ccc(Cl)cc2Cl)SC1=S
-0.44*,14*,CC1=NN(C(=O)c2c(Br)cnn2C)C(O)(C(F)(F)F)C1 (stereo not given)
0.89,0.78,COc1cc(CCC(=O)N2CCN(c3ccccc3Cl)CC2)cc(OC)c1OC
-1.1,0.49,COc1cccc(OC)c1C(=O)NCC12CC3CC(C1)CC(CNC(=O)c1c(OC)cccc1OC)(C3)C2
-0.01,0.95,COc1ccc(Cl)cc1-c1csc(N)n1
0.02,1.2,O=C(O)c1cc(S(=O)(=O)N2CCCCC2)ccc1Cl
-0.69,0.67,C=CCN(C(=O)CNC(=O)c1ccco1)C(C(=O)NC1CCCCC1)c1cccnc1 (stereo not given)
-0.71,0.88,C=CCn1c(SCC(=O)N(CC)C2CCS(=O)(=O)C2)nc2ccccc2c1=O (stereo not given)
0.06,0.05,CCC(=O)Nc1ccc2c(c1)ncn2-c1ccccc1C
-0.42,0.18,Fc1ccc(-c2csc(Nc3ccccn3)n2)c(F)c1
-3,0.66,CN(Cc1ccccc1)C(=O)c1ccc2c(c1)OCO2
0.22,0.25,Cc1sc2nc(-c3cccs3)oc(=O)c2c1C
1.3,0.02,Cc1cc(CSc2ccccc2C(=O)O)on1
-1.4,0.42,COc1ccc(-c2cn(Cc3ccc(C)cc3)nn2)cc1
-0.75,0.84,C=CCN(CC=C)CCOc1ccccc1
-0.35,0.56,O=C(COC(=O)c1ccc(S(=O)(=O)N2CCCC2)cc1)NCc1ccccc1
1.2,0.35,CC1=C(C(=O)OC(C)C)C(c2c[nH]c3ccccc23)n2ncnc2N1 (stereo not given)
-0.25,1,Cc1ccsc1/C=C1\SC(N2CCOCC2)=NC1=O

# More records.
KCNQ2 enhance baseline,KCNQ2 enhance,SMILES
0.37*,6.1*,O=C(Cc1ccccc1)N/N=C/c1cc(Br)cc(Cl)c1O
0.48,0.01,Cc1cccn2c(=O)nc(SCC(=O)Nc3cccc4ccccc34)nc12
4.1,0.12,Nc1nnnn1/N=C/c1cc(Cl)ccc1O
-1.8,0.98,C#CCOC(=O)/C(=C/c1ccc(F)cc1)NC(C)=O
1.4,0.17,O=C(CSc1nnc(-c2ccccn2)n1Cc1ccco1)Nc1ccc2c(c1)OCO2
0.47,1,CC(C)(CNC(=O)c1cc2c(s1)CCCC2)N1CCOCC1
-0.04,0.93,CCCCN(C1CCS(=O)(=O)C1)S(=O)(=O)c1cc(C)ccc1C (stereo not given)
1.1,0.21,O=C(CSc1nc2ccccc2nc1N1CCOCC1)N1CCN(c2ccccc2)CC1
0.01,0.67,CC(=O)N1CCN(C2=NC(=O)C(=C3CCCCC3)S2)CC1
1.9,2.4,Cc1cc(=O)n(CC(=O)Nc2cc(Cl)ccc2C)c(C(C)C)n1
-0.33,0.71,c1ccc(NCc2nnc3n2CCCCC3)cc1
1.5,0.79,O=C(C1CCN(S(=O)(=O)c2cccc3nsnc23)CC1)N1CCN(c2ccccc2F)CC1
-0.32,1.3,O=C(O)c1cccc(NS(=O)(=O)c2ccc(S(=O)(=O)N3CCOCC3)cc2)c1
-0.43,0.37,Cc1ccc(S(=O)(=O)N2CCN(Cc3cccc(C)c3O)CC2)cc1
-0.98,1.7,CCc1ccccc1NC(=S)NC1CC2CCCC(C1)N2Cc1cccs1 (stereo not given)
-0.58,0.05,CC(=O)c1c(-c2ccc(Cl)cc2Cl)noc1C
-0.01,0.58,Cc1ccc(S(=O)(=O)NC(C)C(c2cccs2)N2CCN(C)CC2)cc1 (stereo not given)
1,0.4,Cc1nc(C)c(-c2ccnc(/N=C/NO)n2)s1
-1.1,0.14,O=C(CSc1nnc2ccccn12)c1ccc(Cl)cc1
-1.9,0.79,O=C(Nc1cccc(Oc2ccc3c(c2)C(=O)NC3=O)c1)c1ccco1

# Remaining list, next part:
KCNQ2 enhance baseline,KCNQ2 enhance,SMILES
0.7,0.12,COCc1c(C(=O)OC)nnn1-c1ccc(C(F)(F)F)cc1[N+](=O)[O-]
-3.4,0.88,Cc1c(NC(=O)c2cc(-n3cnnc3)ccc2Cl)cccc1-c1nc2ccccc2s1
-1.2,0.07,CCCCN1Cc2c(nc3cc(-c4ccco4)[nH]n3c2=O)C1=O
1.2,1.7,CN(Cc1ccco1)S(=O)(=O)c1nnc(NC(=O)c2ccccc2Cl)s1
0.79,0.01,COc1ccc(CN2C(=O)NC3(CCOc4ccccc43)C2=O)cc1F (stereo not given)
x,-5.6,COc1ccc(N2CCN(C(=O)CSc3ncnc4scc(-c5ccc(C)cc5)c34)CC2)cc1
-0.02,0.17,CCCOc1ccc(C2C(C(=O)c3cc4ccccc4o3)=C(O)C(=O)N2c2cc(C)on2)cc1OC (stereo not given)
0.64,0.05,CCCOc1ccc(CCN2CCC(=O)NC2=O)cc1C
1.2*,5.4*,O=C(CSc1nnc(SCc2ccc(Cl)cc2)s1)N/N=C/c1c(Cl)cccc1Cl
-1.2,2,Cc1ccc(NC(=O)CCCN2C(=S)NC(C)(C)CC2C)cc1 (stereo not given)
-0.16,1.1,COc1ccc2cnn(CCOc3cc(C)ccc3C(C)C)c(=O)c2c1OC
0.84,0.69,O=C(Cc1cccs1)N1CCN(S(=O)(=O)c2ccc(F)cc2)CC1
-2.9,1.4,O=C(CSc1nc(=O)n2ccccc2n1)N1CCN(c2ccccc2)CC1
-1.5,0.49,CCN(CC)C(=O)Cn1cc(SCC(=O)Nc2cc(C)on2)c2ccccc21
0.45,0.71,O=C1N(CCCl)c2ccc(Br)cc2C12OCCO2
-1.1,0.1,CCCCc1nc2cc(C(=O)NC(C)c3cnn(C)c3)ccc2o1 (stereo not given)
0,0.07,COCCn1c(C)cc(/C=C(\C#N)C(=O)OC(C)C(=O)Nc2ccc(NC(C)=O)cc2)c1C (stereo not given)
2.6,1.8,Cc1ccc(NC2=CC(=O)OC(C)C2)cc1 (stereo not given)
0.84,0.41,COc1ccc(C2(C(=O)N3CCC(n4nc(-c5ccccc5)oc4=O)CC3)CC2)cc1
1.2,0.27,COc1ccc(CC(=O)N2CCc3cc(OC)c(OC)cc3C2)cc1

# The list goes on:
KCNQ2 enhance baseline,KCNQ2 enhance,SMILES
-0.01,1.8,CCc1cn([C@H]2C[C@H](O)[C@@H](CO)O2)c(=O)[nH]c1=O
-0.11,0.05,O=[N+]([O-])c1ccc(N2CCN(Cc3ccc([N+](=O)[O-])o3)CC2)cc1
-0.46,1.2,C/C(CC(=O)NCc1ccco1)=N\NC(=O)Cc1ccc(-c2ccccc2)cc1
-0.1,1.4,CCOC(=O)N1CCN(c2cc(N3CCOCC3)c(F)cc2[N+](=O)[O-])CC1
0.39,0.74,O=C(NCc1ccc2c(c1)OCO2)c1cccc(C(=O)NCc2ccc3c(c2)OCO3)c1
-0.47,0.38,C/C(=N\NC(=O)C(NC(=O)c1ccccc1)C(C)C)c1ccccc1 (stereo not given)
1.5,0.35,COc1ccc(NC(=O)CCCN2C(=O)C(c3ccccc3)Oc3cccnc32)cc1OC (stereo not given)
-0.57,0.88,CC(CC(=O)Nc1nncs1)c1ccccc1 (stereo not given)
0.77,1.7,COc1ccc(S(=O)(=O)NC(Cc2ccccc2)C(=O)O)cc1 (stereo not given)
0.14,0.67,CCOc1ccccc1Nc1nnc(SCC(=O)NC(=O)c2cccn2C)s1
-0.26,1.8,COc1ccc(NC(=O)CC2Nc3ccccc3NC2=O)c([N+](=O)[O-])c1 (stereo not given)
-1.2,1.1,CCc1ncc(C(O)c2cccc(OC)c2OC)n1C (stereo not given)
-0.28,1.1,O=C(Nc1ccccc1)c1ccccc1N=Cc1ccccc1O
-0.49,0.21,COc1ccc(C(=O)NC2CCCCCC2)cc1OC1CCN(C(C)=O)CC1
0.44,0.69,CC(C)C(NC(=O)OC(C)(C)C)C(=O)NC(CCC(=O)OCc1ccccc1)C(N)=O (stereo not given)
0.03,0.98,COc1cc(NC(=O)c2ccccc2)ccc1NC(=O)Cc1ccccc1
1.1,0.76,CN(C)CCCn1c(=O)n(C2CCCCC2)c(=O)c2c3c(sc21)CCCCC3
-2.2,0.9,CC1CC(C)(C)NC(=S)N1CCC(=O)N1c2ccccc2CC1C (stereo not given)
-0.68,0.16,CSc1nnc(Nc2ccccc2C)s1
1.3,3.1,O=C(NC(=S)Nc1sc2c(c1C(=O)O)CCCC2)c1ccccc1

# Carrying on:
KCNQ2 enhance baseline,KCNQ2 enhance,SMILES
-0.92,0.38,Cc1cc(C)n(-c2nc3ccccc3s2)n1
-0.93,0.01,O=C(O)CC1(CC(=O)NCc2ccc(C(F)(F)F)cc2)CCCCC1
-0.54,0.11,O=C(NNC(=O)C12CC3CC(CC(Cl)(C3)C1)C2)c1ccncc1
-2.4,3.8,COc1ccc(C(=O)/C=C/c2ccc(O)cc2)c(O)c1CC=C(C)C
0.13,1.4,COc1cc(CN2CC(C)OC(C)C2)cc(OC)c1 (stereo not given)
0.07,1.6,Cc1cccc(NS(=O)(=O)c2cc(NC(=O)CC(=O)c3ccc([N+](=O)[O-])cc3)ccc2C)c1
-0.11,1.6,Cc1ccc(C(=O)NCCN2CCNC2=O)cc1
-1.1,0.24,CC(C)OC(=O)CSc1nnc(-c2ccco2)n1N
0.24,0.04,COc1ccc(C(=O)CCc2ccccc2O)c(OC)c1
2.1,0.05,CC(C)(C)C(=O)NC1CCN(S(=O)(=O)c2ccccc2F)CC1
-0.04,0.55,CCOC(=O)N1CCN(C(=O)c2cc(S(=O)(=O)N3CCCC3)cn2C)CC1
0.04,0.02,Cc1ccc2c(c1)C1CN(C)CCC1N2C(=O)c1ccccc1NS(=O)(=O)c1ccc(F)cc1 (stereo not given)
0.05,0.12,CCc1ccccc1NC(=O)C1NC(=O)CC1c1ccccc1 (stereo not given)
-0.91,1.9,COc1cc(C(C(=O)NC2CCCC2)N(C(=O)c2ccco2)c2ccccc2C(C)=O)cc(OC)c1OC (stereo not given)
0.27,0.03,O=c1cc(O)c2sc3nc4c(c(C(F)(F)F)c3c2[nH]1)CCCCC4
0.54,0.69,Cc1ccc(S(=O)(=O)Nc2nc(C)cc(N/N=C/c3ccc(O)cc3)n2)cc1

# Structures above that have a furan ring, fused or not:
KCNQ2 enhance baseline,KCNQ2 enhance,SMILES
-0.74,1.4,CCOC(=O)C1(CC)NC(c2ccco2)C2C(=O)N(c3ccc(C)cc3)C(=O)C21 (stereo not given)
2.9,0.06,O=C(O)/C=C/C(=O)N(Cc1ccccc1)Cc1ccco1
-0.69,0.67,C=CCN(C(=O)CNC(=O)c1ccco1)C(C(=O)NC1CCCCC1)c1cccnc1 (stereo not given)
1.4,0.17,O=C(CSc1nnc(-c2ccccn2)n1Cc1ccco1)Nc1ccc2c(c1)OCO2
-1.9,0.79,O=C(Nc1cccc(Oc2ccc3c(c2)C(=O)NC3=O)c1)c1ccco1
-1.2,0.07,CCCCN1Cc2c(nc3cc(-c4ccco4)[nH]n3c2=O)C1=O
1.2,1.7,CN(Cc1ccco1)S(=O)(=O)c1nnc(NC(=O)c2ccccc2Cl)s1
-0.02,0.17,CCCOc1ccc(C2C(C(=O)c3cc4ccccc4o3)=C(O)C(=O)N2c2cc(C)on2)cc1OC (stereo not given)
-0.11,0.05,O=[N+]([O-])c1ccc(N2CCN(Cc3ccc([N+](=O)[O-])o3)CC2)cc1
-0.46,1.2,C/C(CC(=O)NCc1ccco1)=N\NC(=O)Cc1ccc(-c2ccccc2)cc1
-1.1,0.24,CC(C)OC(=O)CSc1nnc(-c2ccco2)n1N
-0.91,1.9,COc1cc(C(C(=O)NC2CCCC2)N(C(=O)c2ccco2)c2ccccc2C(C)=O)cc(OC)c1OC (stereo not given)
